RecA splice inh: Mtb RecA intein splicing inhibitors, primary screen, biochemical, fluorescence, HTS; Protein RecA (Mycobacterium tuberculosis (strain ATCC 25618 / H37Rv)), P9WHJ3; cell-free RecA intein splicing; inhibition, %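 (about 9 µM by stock and volumes)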; actives 0.75% (n = 290,000); AID 2221, 2009; in the data active = inhibition above about 30%; inconclusive = no clear call, values can overlap the other calls;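 note: 0% = vehicle wells and 100% = reference inhibitor control wells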
Target sequence (P9WHJ3 whole entry, looked up, canonical isoform): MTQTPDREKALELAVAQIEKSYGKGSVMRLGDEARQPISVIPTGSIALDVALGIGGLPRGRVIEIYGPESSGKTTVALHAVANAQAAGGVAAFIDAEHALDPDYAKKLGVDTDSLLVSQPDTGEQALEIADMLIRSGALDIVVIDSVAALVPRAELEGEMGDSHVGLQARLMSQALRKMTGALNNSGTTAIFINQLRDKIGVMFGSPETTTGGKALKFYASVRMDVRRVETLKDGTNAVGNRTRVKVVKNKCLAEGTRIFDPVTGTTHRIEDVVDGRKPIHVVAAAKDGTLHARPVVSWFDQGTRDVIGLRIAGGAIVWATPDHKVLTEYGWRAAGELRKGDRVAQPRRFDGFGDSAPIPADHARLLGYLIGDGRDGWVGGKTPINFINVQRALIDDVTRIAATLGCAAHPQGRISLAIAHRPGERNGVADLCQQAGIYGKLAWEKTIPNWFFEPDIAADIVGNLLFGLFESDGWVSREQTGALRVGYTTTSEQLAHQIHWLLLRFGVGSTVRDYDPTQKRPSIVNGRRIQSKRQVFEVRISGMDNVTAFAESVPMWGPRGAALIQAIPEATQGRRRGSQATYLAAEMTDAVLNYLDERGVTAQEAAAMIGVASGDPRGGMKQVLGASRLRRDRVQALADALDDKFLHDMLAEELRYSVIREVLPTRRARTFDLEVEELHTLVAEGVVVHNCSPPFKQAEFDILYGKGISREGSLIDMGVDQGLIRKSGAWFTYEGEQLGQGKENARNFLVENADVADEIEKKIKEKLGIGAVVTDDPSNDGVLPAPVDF
YopH inh: YopH tyrosine phosphatase inhibitors, primary screen, biochemical, fluorescence Ex485/Em525. inhibition, %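 (about 10 µM by stock and volumes)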. YopH tyrosine phosphatase [Yersinia enterocolitica]. actives 0.16% (n = 140,000). AID 898, 2007;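 active = inhibition of 50% or more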;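 note: controls were vehicle for no effect and minimum signal wells for full effect; inactives centre near -20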
Arbovirus anti: antivirals against arbovirus infection, primary screen, cell-based, full library, 10K replicate subset; inhibition, % at 10 µM; actives 0.37% (n = 200,000); arbovirus infection cell-based antiviral screen;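 active = inhibition from about 30%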;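 note: bluetongue infection of BSR cells; cell survival read as ATP light after 72 h; 0% = infected wells without compound and 100% = uninfected wells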
Mtb betalactam: beta-lactam sensitization of Mtb H37Rv, H37Rv | inhibition, % at 25 µM | actives 0.27% (n = 330,000) | M. tuberculosis H37Rv growth with meropenem, percent inhibition; hits of this screen are not shown here;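 active = about 74% or more and at least 40 points above the plate without the antibiotic, then above 30% in a dose series; inconclusive = first-round hits that could not be retested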;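 note: growth measured after seven days incubation then overnight dye step; 0% = bacteria only wells and 100% = bacteria with antibiotic; twin plates without the antibiotic show which effects depend on it; some results filed as inactive read as strong as hits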
Mtb growth: M. tuberculosis H37Rv growth inhibitors, H37Rv strain (AID 1626). M. tuberculosis H37Rv growth inhibition; higher % means a stronger effect. inhibition, % at 10 µM, or IC50 in µM where a hit was titrated. actives 0.95% (n = 220,000);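 active = confirmed in a dose series; inconclusive = inhibition above 80% but not taken into the dose series; inactive = below 80% or under 30% at every dose of the series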;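 note: bacteria incubated seven days before Alamar blue readout; 0% = bacteria only wells and 100% = bacteria with antibiotic wells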
Arbovirus anti repeat: recorded beside Arbovirus anti, whose call it bears; inhibition, %; measured here: 10K subset replicate screen; many hits read low in the repeat;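 first of two repeat runs on a subset; 0% = infected and 100% = uninfected wells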
Starred values were filed as active, the others as inactive; ? = inconclusive; . = no result given. A portion of the library. The share of hits here may be higher or lower than overall.

SMILES	RecA splice inh	YopH inh	Arbovirus anti	Mtb betalactam	Mtb growth	others
CCOc1cc(N2CCOCC2)c(OCC)cc1NC(=O)Cn1[nH]c(=O)c2ccccc2c1=O	0.4	-15.7	-1.2	-6.4	-3.5%
Cc1cc(C)n(-c2ccc(C(=O)OCC(=O)N(CC(C)C)C3CCS(=O)(=O)C3)cc2)n1 (centres undefined)	4.3	-18.4	-3.4	0.0	-12.6%
CN(C(=O)Nc1ccc(Cl)cc1)c1c2c(nn1C)CCCC2	-3.3	-1.7	-1.9	-6.9	-9.9%
CCC1(C)SC(NC(C)=O)=NN1C(C)=O (centres undefined)	0.0	.	-4.2	3.5	-0.1%
CCc1ccc(N2CC(C(=O)NNC(=O)c3ccc(F)cc3)CC2=O)cc1 (centres undefined)	0.2	.	.	-1.5	.
COC(=O)c1cccnc1SCc1ccccc1	9.1	-90.4	-0.6	0.2	-5.1%
COc1ccc(O[C@H]2C=C[C@@H](c3ccccc3)O[C@@H]2CO/N=C(\C)CCN2CCCCc3nc(C)c(C)cc32)cc1	.	-0.3	-8.9	.	.
CC1CC(C)CN(S(=O)(=O)c2ccc(NC(=O)CN3C(=O)NC(C)(c4ccccc4)C3=O)cc2)C1 (centres undefined)	4.2	.	.	-11.3	.
CC(C)c1ccc(NC(=S)N2CCCC2)cc1	-0.6	.	.	-3.5	.
COc1ccccc1OCc1nc(C#N)c(NCc2ccco2)o1	1.7	-26.2	3.5	-10.1	-3.6%
O=C(COc1nncc2ccccc12)NCC(F)(F)F	-3.8	.	15.0	0.8	6.8%
Clc1ccc(SCc2cc(-c3ccc(Cl)cc3)on2)cc1	0.4	-28.4	3.1	-5.8	8.4%
FC(F)Oc1ccc(NC(=S)N2CCc3ccccc32)cc1	1.6	.	11.3	-8.3	2.6%
CCN(CC)CCN1CNC(=S)N(c2ccccc2OC)C1	-0.7	.	.	-12.8	-3.8%
COc1cc(C(=O)Nc2ccc(S(=O)(=O)NC(C)(C)C)cc2)cc(OC)c1OC	-0.3	-11.5	2.8	0.8	-1.7%
c1ccc(CSc2ncn(-c3ccccc3)n2)cc1	1.4	-5.5	-5.4	18.1	2.7%
CCCOc1ccc(C2C(=O)N(C3CCCCC3)CC(=O)N2CCC)cc1OC (centres undefined)	0.6	-39.4	-0.2	-6.6	-2.0%
CCCCS(=O)CC(CS(=O)CCCC)OC(=O)c1ccc(C)cc1 (centres undefined)	3.1	19.6	5.0	-7.6	-10.3%	Arbovirus anti repeat=9.0
CC1=Nc2cccc3cccc(c23)N1C	77.9*	-17.7	3.6	6.0	-4.2%
CCc1ccc(OCC(=O)NC(=S)Nc2ccc(C(=O)O)cc2)cc1	-0.5	.	.	1.7	4.9%

The closing two entries of the section before lead into the next:
SMILES	RecA splice inh	YopH inh	Arbovirus anti	Mtb betalactam	Mtb growth	others
CC1=Nc2cccc3cccc(c23)N1C	77.9*	-17.7	3.6	6.0	-4.2%
CCc1ccc(OCC(=O)NC(=S)Nc2ccc(C(=O)O)cc2)cc1	-0.5	.	.	1.7	4.9%
O=C(NC12CC3CC(CC(C3)C1)C2)N1CCN(c2ncccn2)CC1	0.6	.	3.0	-2.1	-1.4%
CCCNC(=O)CCNC(=O)c1ccc(C(C)(C)C)cc1	1.3	2.8	-3.2	7.7	2.4%
O=C(CCCCCN1C(=O)c2cccc3cccc(c23)C1=O)N1CCOCC1	-2.5	-13.2	2.3	-2.5	1.6%
NS(=O)(=O)c1ccc(CCNC(=O)c2ccccc2-c2ccccc2)cc1	1.2	.	.	-5.9	.
CCOC(=O)N1CCC(NC(=O)C2CCN(S(=O)(=O)c3cccc4cccnc34)CC2)CC1	-1.2	-38.2	1.4	-3.5	-9.0%	Arbovirus anti repeat=0.6
CCOc1ccc(-n2cc(C(=O)Nc3cccc(Cl)c3)c3cc(OC)c(OC)cc3c2=O)cc1	4.5	-13.6	-5.2	-4.6	1.2%
Cc1ccc(/C=C/C(=O)N2CCc3ccccc32)o1	6.7	-14.8	1.4	21.9	9.4%
O=C(COC(=O)c1ccccc1NS(=O)(=O)c1cc([N+](=O)[O-])ccc1Cl)c1ccccc1	-3.3	.	-7.1	-7.3	5.4%
NC(=O)c1nsc(C(=O)N(c2ccccc2)C(C(=O)NCC2CCCO2)c2ccc(F)cc2)c1N (centres undefined)	-4.0	.	.	-2.2	.
Cc1cccc(CCNC(=O)CCc2c(C)nc3ncnn3c2C)c1	.	3.1	4.9	-1.9	-1.1%

The closing 2 entries of the part before come first, to join the parts.
SMILES	RecA splice inh	YopH inh	Arbovirus anti	Mtb betalactam	Mtb growth	others
NC(=O)c1nsc(C(=O)N(c2ccccc2)C(C(=O)NCC2CCCO2)c2ccc(F)cc2)c1N (centres undefined)	-4.0	.	.	-2.2	.
Cc1cccc(CCNC(=O)CCc2c(C)nc3ncnn3c2C)c1	.	3.1	4.9	-1.9	-1.1%
CC1CCN(C(=O)CSc2nnc(-c3ccc(S(=O)(=O)N4CCOCC4)cc3)n2C)CC1	2.8	16.2	3.6	6.1	2.8%
O=c1c2c3nc4ccccc4nc3n(/N=C/c3ccco3)c2ncn1CCC1=CCCCC1	5.8	.	.	9.2	6.5%
CN1CCN(c2ccc(NC(=O)COc3ccccc3[N+](=O)[O-])cc2)CC1	1.9	.	1.7	3.1	-1.9%
COc1ccc(C2=NOC(C(=O)NCCN3CCOCC3)C2)cc1 (centres undefined)	-2.8	-52.7	13.5	.	12.6%
C(=N/Nc1nccs1)/c1cccnc1	-1.2	.	-4.5	2.0	2.1%
COc1cccc(OC)c1NC(=O)Cn1nc(C)c2ccccc2c1=O	-2.2	.	.	-11.8	.
CC1Nc2ncnc(N3CCc4ccccc4C3)c2N(Cc2ccc(Cl)cc2)C1=O (centres undefined)	31.6*	.	.	0.0	.
CCN(Cc1ccncc1)C(=O)C1CCN(S(=O)(=O)c2cccs2)CC1	1.4	-6.7	0.6	2.0	-5.1%
CCc1cc(=O)oc2c3c(cc(OCC(=O)N[C@H](C(=O)O)[C@H](C)CC)c12)OC(C)(C)CC3	-1.4	.	.	-4.0	.
C[C@@H]1CC[C@]2(O[C@@H](CCO)C[C@@H](O)[C@@H]2O)O1	-1.1	.	.	-12.2	-6.1%
CCc1nc(N2CCN(C(C)=O)CC2)c(C#N)c2c1COC(C)(C)C2	-1.1	.	.	-2.8	-2.9%
Cc1ccc(C(=O)O/N=C(\N)Cc2cccs2)c(Cl)c1	3.3	.	.	0.1	.
C[C@H](NC(=O)c1nc[nH]c1C(=O)N1CCN(c2ccccc2)CC1)C(=O)OCc1ccccc1	1.9	.	.	2.8	.
COC(=O)c1cc(C#N)c(OC(C)C)nc1C	-1.3	.	-3.0	1.8	1.4%
COc1ccccc1Nc1nc2c(C)cccc2cc1C#N	-0.3	-28.0	-1.6	-8.2	0.7%
COCC(C)Nc1nc(C)c(C(C)=O)s1 (centres undefined)	-0.3	.	5.8	3.1	2.8%
Cc1cc(OC(=O)c2cc(C(F)(F)F)cc(C(F)(F)F)c2)c([N+](=O)[O-])c(=O)[nH]1	2.6	.	.	1.8	.
COc1cc(/C=C/C(=O)OCC(=O)NC(=O)NCc2ccccc2)ccc1OCC#N	-0.9	.	-4.5	2.0	4.7%
O=C(NNC(=O)c1ccc(F)cc1F)c1ccc2c(c1)OCO2	-3.5	.	23.0	3.0	-6.8%
COc1ccccc1C(=O)COC(=O)CCN=C1NS(=O)(=O)c2ccccc21	-3.1	.	.	-5.5	.

Quoted at random: 4 entries already listed
SMILES	RecA splice inh	YopH inh	Arbovirus anti	Mtb betalactam	Mtb growth	others
C[C@H](NC(=O)c1nc[nH]c1C(=O)N1CCN(c2ccccc2)CC1)C(=O)OCc1ccccc1	1.9	.	.	2.8	.
CCc1nc(N2CCN(C(C)=O)CC2)c(C#N)c2c1COC(C)(C)C2	-1.1	.	.	-2.8	-2.9%
COC(=O)c1cc(C#N)c(OC(C)C)nc1C	-1.3	.	-3.0	1.8	1.4%
COc1cc(/C=C/C(=O)OCC(=O)NC(=O)NCc2ccccc2)ccc1OCC#N	-0.9	.	-4.5	2.0	4.7%

Further results:
SMILES	RecA splice inh	YopH inh	Arbovirus anti	Mtb betalactam	Mtb growth	others
O=C(Nc1cc(C(F)(F)F)ccc1N1CCOCC1)c1cccnc1	1.0	-1.1	2.2	?	1.4%
CCCCOC(=O)C1CCCC(C)N1 (centres undefined)	-4.1	-2.6	-1.2	6.9	-7.6%
Cc1cccc(C)c1NC(=O)CSCC(=O)O	.	-28.1	4.4	-13.5	-3.7%
COc1ccc(N2CC(C)Cn3c2nc2c3c(=O)n(Cc3ccc(C)cc3)c(=O)n2C)c(OC)c1 (centres undefined)	1.2	.	2.6	10.3	11.7%
CCCn1c(N)c(C(=O)NS(=O)(=O)c2ccc(C)cc2)c(=O)n(C)c1=O	0.5	.	13.8	0.3	6.9%
CC(C)(C)OC(=O)Cn1c(=O)cnc2ccccc21	2.1	3.9	-1.7	-4.7	0.5%
O=C(OCc1ccc(F)cc1)c1ccc2c(c1)-c1ccccc1C2=O	-1.5	-42.3	0.9	36.5	-0.4%
CC12CCC(C(=O)N(c3cccc(Cl)c3)C1=O)C2(C)C (centres undefined)	2.0	1.8	0.9	-2.6	4.1%
COc1ccccc1N(Cc1ccccc1)S(=O)(=O)c1cc(C(=O)O)ccc1Cl	1.2	.	10.9	-25.3	-13.7%
COc1cccc(CN2CCN(Cc3cc(OC)c(OC)c(OC)c3)CC2)c1OC	1.4	.	.	-8.8	.
O=C(NCC(c1ccco1)N1CCN(c2ccc(F)cc2)CC1)C(=O)NC1CCCCC1 (centres undefined)	2.0	.	.	-3.3	.
Cc1ccc(NC(=O)N(Cc2cc3cc(C)cc(C)c3[nH]c2=O)CC2COCCO2)cc1 (centres undefined)	-0.6	-6.9	0.3	-5.2	10.5%
CN(C)S(=O)(=O)c1ccc(C(=O)NCC(c2cccs2)N2CCOCC2)cc1 (centres undefined)	-6.1	.	.	-5.8	.
O=C(Nc1ccccc1N1CCCC1)c1ccc2ccccc2c1	-2.1	.	.	93.0	.
CC[N+]1(CC(O)COC2CC(C)CC(C)(C)C2)CCOCC1 (centres undefined)	1.7	.	.	-3.8	-1.9%
Cc1ccsc1/C=N/n1cnnc1	-1.3	.	.	-11.3	-7.1%
CCN(c1ccccc1)S(=O)(=O)c1ccc(Cl)c(NC(=O)CSc2nncn2C)c1	-3.2	-12.2	7.1	-3.7	10.1%
CCN(CC(=O)Nc1c(F)cccc1F)C(=O)C1(c2ccccc2)CC1	-1.0	.	.	-10.7	.
Cc1onc(-c2ccccc2Cl)c1C(=O)NCc1nnnn1-c1ccc(F)cc1	-0.2	.	.	-13.8	.
O=S(=O)(Nc1ccccc1C(F)(F)F)c1ccc(-c2ccccn2)s1	1.1	.	.	1.5	.
CCc1ccc(N2C(=O)c3sc4nnc(C)c(=O)n4c3C2=O)cc1	1.1	-43.7	3.0	-7.8	-13.1%	Arbovirus anti repeat=-0.4
CCOc1ccc(NC(=O)Nc2cc(-c3ccccc3)sc2C(=O)OC)cc1	-1.9	-2.5	34.4*	-0.2	14.9%
